Screening results: PubChem BioAssay, several laboratories
Rce1 inh = yeast Rce1p protease inhibitors, primary screen, biochemical, fluorescence, cell-free homogeneous; 290,000 tested, 0.27% active; calls only; yeast membranes, quenched prenylated peptide cleavage fluorescence;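 active = fall in fluorescence gain of 50% or more versus controls, with final raw signal at or below 3038400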;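 also: plate controls were neutral control wells for no effect and wells lacking membranes for full effect; tested at 10 µM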
MT1-MMP act inh = blockers of MT1-MMP proenzyme processing, primary screen, HT1080 RFP-PRO-GFP cells, GFP/RFP fluorescence; Matrix metalloproteinase-14 (Homo sapiens), P50281; GFP/RFP ratio fluorescence, overnight; percent of plate control window, DMSO zero; GFP/RFP ratio change, % at 20 µM; 360,000 tested, 0.061% active; AID 651647, 2012;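 active = GFP/RFP ratio change of at least 30% with cell ATP level not reduced by more than half and red fluorescence within 50% of control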; also: strong numbers were not always called active
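Material: RFP-PRO-GFP reporter HT1080 cells. Dosing: single-point 20 µM compound, 1% DMSO. Controls: DMSO and RFP-L50D-GFP cell wells. Timing: cells overnight before dosing, compound overnight, 37 °C, 5% CO2. Measure: GFP/RFP fluorescence ratio.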
PABP FP inh = PABP poly(A) RNA binding inhibitors, primary screen, biochemical, fluorescence polarization, uHTS; inhibition, % at 35 µM; Polyadenylate-binding protein 1 (Homo sapiens), P11940; 290,000 tested, 1% active;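 active = 50% or more with normal probe brightness, or confirmed in later tests; about a fifth of its hits are not listed in these tables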;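 also: calls also rest on retests at 20 µM and on dose response follow-up; controls were probe without protein and protein plus probe with vehicle; some compounds called inactive have numbers as strong as hits; many hits fall short of the cut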
Target sequence (P11940 whole entry, looked up): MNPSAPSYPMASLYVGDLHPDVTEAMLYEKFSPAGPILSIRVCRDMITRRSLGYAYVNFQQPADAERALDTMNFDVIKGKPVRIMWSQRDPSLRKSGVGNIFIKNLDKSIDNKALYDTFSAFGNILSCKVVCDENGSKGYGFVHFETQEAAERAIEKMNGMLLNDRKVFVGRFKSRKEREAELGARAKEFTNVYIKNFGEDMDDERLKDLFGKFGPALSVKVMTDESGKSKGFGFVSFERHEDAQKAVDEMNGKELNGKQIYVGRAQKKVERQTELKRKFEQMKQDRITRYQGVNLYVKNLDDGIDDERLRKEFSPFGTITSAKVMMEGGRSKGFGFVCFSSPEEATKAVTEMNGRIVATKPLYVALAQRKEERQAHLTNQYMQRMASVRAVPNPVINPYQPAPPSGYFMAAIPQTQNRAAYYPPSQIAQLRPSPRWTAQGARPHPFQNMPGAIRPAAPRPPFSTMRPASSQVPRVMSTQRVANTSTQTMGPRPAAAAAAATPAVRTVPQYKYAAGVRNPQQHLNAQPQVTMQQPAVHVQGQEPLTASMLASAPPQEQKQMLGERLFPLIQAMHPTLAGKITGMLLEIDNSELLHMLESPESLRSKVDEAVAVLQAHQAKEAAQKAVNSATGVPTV
CSC inhib = cancer stem cell viability inhibitors, primary screen, luminescence | inhibition, % at 7.5 µM | AID 2717, 2010 | cancer stem cell-like cells viability | 300,000 tested, 1.1% active;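 active = mean at 75% or more and at least half the replicates too; tested in HMLE shEcad cells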;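 also: 0% = median of negative and 100% = median of positive control wells; the first replicate is given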
eIF4H inh = human eIF4H binding inhibitors, primary screen, translation initiation inhibitor project, biochemical, uHTS, fluorescence polarization | eIF4H fluorescence polarization binding assay | inhibition, % at 35 µM | 290,000 tested, 0.94% active;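 active = 50% or more with normal probe brightness, or confirmed in later tests; about a fifth of its hits are not listed in these tables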;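 also: calls also rest on retests at 20 µM and on dose response follow-up; 0% = protein and probe with vehicle and 100% = probe without protein; strong numbers were not always called active; many hits fall short of the cut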
HIV Env fusion = inhibitors of HIV-1 Env-driven cell-cell fusion, primary screen, HeLa-JRFL effector, CEM21 target cells, luciferase; AID 651610, 2012; inhibition, % at 12.3 µM; 360,000 tested, 1.1% active;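 active = mean replicate inhibition score of at least 50 and every replicate individually at or above 50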;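 also: 0% = plate neutral controls and 100% = maraviroc near 300 nM; one replicate is shown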
Yeast UUG start = modulators of yeast start codon fidelity, primary screen, whole organism, S. cerevisiae, single point, plate reader. S. cerevisiae UUG-firefly luciferase reporter, luminescence/redox ratio. activity score, % at 18.7 µM. 350,000 tested, 0.13% active. AID 602363, 2012;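 active = replicate mean at a twofold rise or more, about +100% in these data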;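 also: firefly luciferase made from a UUG start codon reports start codon fidelity; reporter light over untreated wells divided by growth signal over untreated wells; some hits fall short of that in this replicate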
eIF4H inh retest = recorded beside eIF4H inh, whose call it bears; inhibition, %; compound at 20 µM; confirmation average;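 mean of two retest wells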
PABP FP inh retest = second read-out of PABP FP inh, no call of its own (marks repeat the call); inhibition, %; compound at 20 µM; confirmation repeats;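 mean of two retest wells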
MT1-MMP act inh RFP = recorded beside MT1-MMP act inh, whose call it bears; RFP signal change, %; measured here: RFP expression control read;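 0 = vehicle wells; hits needed this value within 50% of zero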
* hit, by the source's call; i = inactive; nt = not tested or not shown.

SMILES	Rce1 inh	MT1-MMP act inh	MT1-MMP act inh RFP	PABP FP inh	CSC inhib	eIF4H inh	HIV Env fusion	Yeast UUG start	others
Cc1c(C(=O)N2CCN(c3ccccc3F)CC2)oc2c1C(=O)CC(C)(C)C2	i	3	2	1	-6	-8	21	-2
COc1ccc(NC(=S)N2CCN(S(=O)(=O)c3ccc(C)cc3)CC2)cc1	i	1	-3	-4	-9	-6	6	-21
O=c1[nH]ncc(NCCc2ccccc2)c1Cl	i	2	1	5	-12	2	35	nt
O=C(Oc1nsnc1N1CCOCC1)N(c1ccccc1)c1ccccc1	i	1	-3	-2	-1	9	8	13
CCCCSc1nc2ccc(Nc3nc(N4CCOCC4)nc(N4CCOCC4)n3)cc2s1	i	-1	-12	-3	-9	16	nt	-15
CC(=O)N1CCc2c(sc3c2c(=O)n(Cc2ccccc2)c(=O)n3CC(=O)NCC2CCCO2)C1 (stereo unspecified)	i	4	9	-17	-7	-10	-11	-10
CCN1CCN(CNC(=O)c2cnccn2)CC1	i	0	1	-2	-14	4	nt	-14
Cc1ccsc1/C=C1/C(=O)NN(c2ccccc2)C1=O	nt	-2	1	-2	9	7	4	nt
O=C(COC(=O)c1cc(F)c(F)cc1Cl)NC1CC1	i	-3	-6	-4	nt	-4	-17	nt
COc1ccc(C2(O)CN(c3ccccc3)C3=[N+]2CCS3)cc1OC (stereo unspecified)	i	-5	-6	13	6	-6	-7	nt
CC(C)CCOc1ccc(CO[C@@H]2[C@H]3OC(C)(C)O[C@H]3O[C@@H]2C(O)CO)cc1 (stereo partly specified)	i	-1	-2	-11	-4	-13	5	7
Cc1noc(C)c1COC(=O)Cc1ccc(Cl)cc1	i	-1	5	3	1	-10	-3	-22
CCCCc1nc(SCc2ccc([N+](=O)[O-])cc2)n[nH]1	i	0	-4	-2	-10	4	-3	nt
Cc1cccc(NC(=O)c2nc[nH]c2C(=O)N(C)Cc2ccccc2)c1	nt	9	-1	nt	-5	nt	8	0
O=C(OCC#CCSc1nnc(-c2cccc3ccccc23)o1)c1ccc(Br)cc1	nt	4	7	nt	nt	nt	-9	-9
CCc1nc2oc3ccccc3c(=O)c2c(=O)n1CCOC	nt	1	3	3	-2	3	3	-2
Cc1ccc2nc(SCC3CCCCO3)[nH]c2c1 (stereo unspecified)	i	-1	0	4	-8	-11	-11	nt
Oc1c(Br)cc(Br)cc1C=NCc1ccccc1	i	-3	4	-7	-6	38	9	nt
C=CCn1c(O)c(N=NC(=S)Nc2ccc(OC)cc2)c2ccccc21	i	6	-4	19	26	19	37*	-4
CC(C)(C)NC(=O)c1cc(Cl)ccc1[N+](=O)[O-]	i	0	3	9	-8	-10	-4	nt
CCOC(=O)C(=NC(C)CC)NNc1ccc(Br)cc1 (stereo unspecified)	i	-1	3	1	54	-8	11	nt
OC(CN1CCOCC1)Cn1c(-c2cccc(Cl)c2)nc2ccccc21 (stereo unspecified)	nt	2	3	-8	-7	-7	-82	-18
O=S(=O)(c1ccccc1)N1CCN(Cc2c(O)ccc3ccccc23)CC1	nt	-3	-1	nt	5	nt	nt	4
O=S(=O)(Nc1cccc(-c2ccc(N3CCCCCC3)nn2)c1)c1ccc(C(F)(F)F)cc1	i	7	0	-10	27	1	-25	-11
CCNC(=O)/C=C/c1ccccc1[N+](=O)[O-]	i	-5	1	5	-23	-5	12	nt
O=C(O)CCN(Cc1ccccc1)S(=O)(=O)c1ccccc1Cl	i	1	2	7	nt	-7	3	nt
Cc1cccc(CSc2nnc([C@@H]3CCCN3C(=O)OC(C)(C)C)o2)c1	i	3	4	10	-5	2	17	nt
C=CCn1c(=O)c2c(C)c(C)sc2n2c(Nc3ccccc3)nnc12	i	-5	-2	0	-3	-6	-12	-19
CC(=O)NCCNc1nc2cc(-c3ccccc3)sc2c(=O)n1C	nt	4	0	nt	nt	nt	-3	-12
Cc1cc(OCCn2cncn2)ccc1[N+](=O)[O-]	i	nt	nt	-3	-9	-8	-8	-2
CN1CCN(C2=Nc3cc(F)ccc3Cc3ccccc32)CC1	i	nt	nt	4	-5	-2	nt	nt
Cc1cccc(NC(=O)CN2CCN(C(=O)CNC(=O)c3ccc(-c4ccccc4)cc3)CC2)c1C	nt	3	-22	nt	nt	nt	22	7
COc1ccc(-c2cc(-c3cccs3)c(C#N)c(SCC(=O)NCc3ccccc3OC)n2)cc1	i	-4	-4	-6	14	9	20	-4
CC(C)CNC(=S)N1CCC(C(=O)c2ccc(Cl)cc2)CC1	nt	-3	-18	nt	nt	nt	20	-12
CCn1c(C)c(C(C)=O)c(N2CCN(c3ccc(F)cc3)CC2)nc1=S	i	-1	1	44	-13	30	-85	-26
COc1cc2nc(C3CCC3)n(NC(=O)C3CCC(OC)CC3)c(=O)c2cc1OC (stereo unspecified)	i	10	-2	-5	-5	-7	nt	0
CCOC(=O)C1CCN(CC(=O)c2c(C)[nH]c3ccccc23)CC1	nt	-25	-5	-2	-1	0	nt	7
CC(=O)c1ccccc1C(=O)N1CCCC(CNC(=O)c2ccc(F)cc2)C1 (stereo unspecified)	nt	2	6	nt	nt	nt	11	-3
Cc1cc(S(=O)(=O)N2CCOCC2)ccc1OCC(=O)NCC1CCCO1 (stereo unspecified)	i	0	0	8	nt	44	19	-11
CN1CCC(N(C)C(=O)c2ccccc2Nc2ccc(SC(F)F)cc2)CC1	i	-11	-4	0	-17	5	-29	-9
Cc1ccc(/C=N/NC(=O)C(=O)N/N=C/c2ccc(C)o2)o1	i	-1	-2	-4	-5	3	4	nt
COc1ccc(-c2ccc3[nH]c4c(c3c2)CCN2C(=O)[C@@H]([C@H](C)O)[C@@H](N(C)C(=O)Nc3ccccc3)C[C@@H]42)cc1	nt	-8	-7	nt	nt	nt	35	-4
CCCOc1ccc(N2C(=O)CC(N3CCC(O)(c4cccc(C(F)(F)F)c4)CC3)C2=O)cc1 (stereo unspecified)	i	2	-10	2	3	-5	nt	-12
O=C(COC(=O)C12CC3CC(CC(C3)C1)C2)NCc1ccco1	i	0	2	26*	4	51*	nt	0	eIF4H inh retest=92*;PABP FP inh retest=62*
O=S1(=O)C[C@H](N2CC[C@@H](O)C2)[C@@H](COCc2ccccc2)N1	nt	0	1	nt	nt	nt	-2	-12

Reprinted from the part before: three compounds, then new ones.
SMILES	Rce1 inh	MT1-MMP act inh	MT1-MMP act inh RFP	PABP FP inh	CSC inhib	eIF4H inh	HIV Env fusion	Yeast UUG start	others
CCCOc1ccc(N2C(=O)CC(N3CCC(O)(c4cccc(C(F)(F)F)c4)CC3)C2=O)cc1 (stereo unspecified)	i	2	-10	2	3	-5	nt	-12
O=C(COC(=O)C12CC3CC(CC(C3)C1)C2)NCc1ccco1	i	0	2	26*	4	51*	nt	0	eIF4H inh retest=92*;PABP FP inh retest=62*
O=S1(=O)C[C@H](N2CC[C@@H](O)C2)[C@@H](COCc2ccccc2)N1	nt	0	1	nt	nt	nt	-2	-12
Cc1ccc2c(c1)c1c(n2CC(O)CN2CCC(C)CC2)CCCC1 (stereo unspecified)	i	2	-3	-13	21	1	11	6
CCc1cc(-c2n[nH]c(C)c2-c2nc3ccccc3n2C)c(O)c(CN2CCN(C)CC2)c1O	i	0	-3	-3	5	0	nt	-16
c1ccc2c(-c3c[nH]c4ccccc34)c3ccccc3nc2c1	i	-19	-26	1	57	-7	nt	0
CC(C)NC(=O)CN1CCN(Cc2nc(-c3cccs3)no2)CC1	i	-4	-4	8	-18	-11	7	4
CC(C)NC(=O)COc1ccc(S(=O)(=O)N2CCCC2)cc1	i	-1	2	-3	0	2	-38	-2
Cc1ccc(S(=O)(=O)[N-]c2nc3ccccc3nc2-[n+]2cc(C)cc(C)c2)cc1	i	-11	1	16	-6	25	2	nt
C[C@@H]1NC(=O)c2cc([N+](=O)[O-])cc(I)c2NCC[C@@H](C(N)=O)NC(=O)[C@H](CC(N)=O)NC1=O	nt	3	4	5	-1	2	nt	-2
CCc1ccc(/C=N/NC(=O)c2nnn(-c3nonc3N)c2CN2CCOCC2)cc1	i	-3	-3	nt	14	nt	-1	3
COc1cccc(CNS(=O)(=O)c2cc(Br)cc3c2N(C(C)=O)C(C)C3)c1 (stereo unspecified)	i	4	2	10	-5	11	nt	-12
COc1cc(/C=C/C(=O)Nc2ccc(C)cc2)cc(OC)c1OC	i	4	-4	11	3	2	17	nt
COc1ccccc1NCCC(=O)OCC(=O)NC1CC1	i	0	3	-1	-12	1	5	-8
CCN(CC)C(=O)COc1ccc2c3c(c(=O)oc2c1)CCCC3	i	0	3	-5	-20	-5	2	-4
COc1ccc2nc(NC(=O)CCNC(=O)c3ccccc3Cl)sc2c1	i	1	-2	3	-9	-1	12	nt
COc1ccc(N(CC(=O)NCCc2ccc(C)cc2)S(=O)(=O)c2c(C)noc2C)cc1	i	-1	-5	10	-9	-3	3	-29
C#CCOCCOCCOCCNc1nc(N2CCN(C(=O)C([C@@H](C)CC)n3cc(C(N)COC(=O)C(F)(F)F)nn3)CC2)nc(N2CCN(C(=O)C([C@@H](C)CC)n3cc(C(N)CC(C)C)nn3)CC2)n1 (stereo partly specified)	i	nt	nt	nt	-6	nt	7	nt
CCN1CCN(CC(=O)c2ccc(OC)cc2)CC1	i	0	4	-16	11	2	5	-19
CCOC(=O)N1CCC(NC(=O)c2cc(COc3c(C)cccc3C)on2)CC1	i	2	-8	0	-7	-8	18	5
COc1ccccc1Oc1c(C)oc2c(CN3CCN(C)CC3)c(O)ccc2c1=O	i	nt	nt	-8	-13	-3	nt	nt
CCCCNC(=O)c1onc(CSc2ccccn2)c1C(=O)NCCCC	i	-3	-1	nt	-4	nt	-13	-16
Cc1ccccc1Nc1nc(CSc2nnc(-c3ccoc3C)n2C)cs1	i	-5	0	4	-7	-5	-119	-28
COC(=O)c1ccc(CSc2nc3c(cnn3-c3ccc(C)c(C)c3)c(=O)[nH]2)o1	nt	-7	-10	1	15	-20	nt	4
O=S(=O)(c1cccc(-c2cn3cccnc3n2)c1)N1CCCCCC1	i	-1	-2	43	-7	51	nt	nt	eIF4H inh retest=2;PABP FP inh retest=11
Cc1ccc(C(=O)NS(=O)(=O)c2ccc(C)cc2)cc1	i	-3	1	5	-3	-2	-6	3
C=CCn1c(C)nnc1SCC(=O)Nc1ccc2c(c1)OCCO2	nt	1	7	nt	nt	nt	21	-48
COC(=O)c1[nH]c2c(c1C)C(=O)CC(c1cccc(OC)c1)C2 (stereo unspecified)	i	0	-15	4	67	1	-493	-14
COc1ccc(-c2coc3c(CN4CCCCC4)c(O)c(CN4CCCCC4)c(O)c3c2=O)cc1	i	nt	nt	-8	4	2	nt	nt
CC(C)[C@H](NC(=O)c1ccccc1)C(=O)OCC(=O)NCCC1=CCCCC1	i	-2	2	10	-27	3	2	5
COc1ccc(C(=O)NCCNC(=O)c2ccc(C)nc2)cc1	i	-1	1	-8	nt	-4	1	-11
COc1ccc(OCCC(=O)Nc2cc(C)on2)cc1	i	0	2	3	-11	-5	-41	12
Cc1ccc(CCNS(=O)(=O)c2c(C)nc3sccn3c2=O)cc1	i	1	2	15	-6	-8	10	-14
CCC(C(=O)NCc1ccco1)N(C(=O)CNS(=O)(=O)c1ccccc1)c1ccc(F)cc1 (stereo unspecified)	i	-1	2	6	-12	0	11	8
